Bioassay records: PubChem, Center for Chemical Genomics, University of Michigan
CDC25B-CDK2 inh: human CDC25B-CDK2/CyclinA binding inhibition. P30305+P24941. HTRF CDC25B-CDK2/CyclinA binding, anti-His/anti-Flag; hits give high values. z-score (test concentration not listed). 94,000 tested, 0.72% active;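 further: score is relative to mean and SD of negative controls; strong numbers were not always called active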
HIV TAR-Tat: HIV-1 TAR-Tat binding disruption; HIV-1 TAR RNA, Tat peptide displacement FRET; hits give high values; z-score (no concentration beside the values); 100,000 tested, 0.6% active;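 further: score is relative to mean and SD of negative controls; some compounds called inactive have numbers as strong as hits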
An asterisk follows results filed as active; / = not tested or not shown.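 How the source made its calls: active means z-score from 3 up in half or more of its runs; inactive means the rest.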 This is a random part of the collection; about 0.87% have a hit in one of these screens.

SMILES | CDC25B-CDK2 inh | HIV TAR-Tat
Cn1ncc2c(Nc3ccc(F)cc3)nc(N3CCC(N4CCCCC4)CC3)nc21 | / | 0.2
O=c1[nH]cccc1-c1nc(-c2ccc3c(c2)OCO3)no1 | 0.36 | -1.1
O=S(=O)(Nc1ccc(-c2cn3ccsc3n2)cc1)c1ccc2c(c1)OCCO2 | / | 0.94
CCOc1ccc(NC2c3ncccc3C(=O)N2c2ccccc2)cc1 (stereo not drawn) | / | 1.3
Cc1nnc(NC(=O)CSc2ccc3nnc(-c4ccc(Cl)cc4)n3n2)s1 | 0.51 | /
Cc1ccc(-c2noc(CNS(=O)(=O)c3ccc(Cl)cc3)n2)cc1 | 0.66 | 0.94
COC(=O)c1cc(-c2ccc(OC)cc2)nc2ccccc12 | 1.6 | 0.88
O=C(CCCCCn1c(=O)[nH]c2ccsc2c1=O)N1CCN(c2ccc(Cl)cc2)CC1 | 0.8 | 0.54
O=C1NCC2=C1C(c1ccccc1)Nc1ccccc1N2 (stereo not drawn) | 0.62 | 0.87
O=C(Nc1ccc(F)cc1)N1CCN(c2ccc(C(F)(F)F)cn2)CC1 | -2.1 | 2.5
CCSc1nc2sc3c(c2c(=O)n1-c1ccccc1)CCN(C(C)=O)C3 | 0.62 | 0.7
CCOC(=O)c1cnc2nc(C)[nH]n2c1=O | -0.34 | -0.01
CCCc1nn2c(=O)cc(CSc3ccccc3NC(=O)c3ccco3)nc2s1 | / | -2.3
O=C(CC1(O)C(=O)Nc2ccc(Br)cc21)c1ccccc1 (stereo not drawn) | / | 0.78
COc1ccc(O)c(C2=NN3C(C2)c2cccc(OC)c2OC3c2cccc(O)c2)c1 (stereo not drawn) | 1.4 | 0.4
CN(C)c1ccc(-c2nnc(-c3ccccc3)o2)cc1 | 0.48 | -0.25
O=C1/C(=C\c2cccc(Br)c2)SC(=S)N1CC(=O)N1c2ccccc2Sc2ccccc21 | -6.5 | /
Cc1ccc(-c2n[nH]c(=O)c3c2CCCC3)cc1S(=O)(=O)N(Cc1ccco1)C1CCCC1 | 1 | 0.81
O=C(Nc1ccc(C(=O)O)cc1)/C(=C\c1ccc([N+](=O)[O-])cc1)NC(=O)c1ccc(Br)cc1 | -4.7 | /
O=c1c2ccccc2n2c(-c3cccc(F)c3)nnc2n1Cc1ccccc1 | -1 | 1.6
COc1ccc(NS(=O)(=O)c2cn(C)cn2)c(OC)c1 | / | 0.46
Cn1c(=O)c2c([nH]c(=S)n2Cc2ccccc2)n(C)c1=O | -2.4 | /
N#CC(=NCc1ccc(Cl)cc1)C1=C(O)c2ccccc2C1=O | -0.86 | /
CCOC(=O)c1c(-n2cccc2)sc2c1CCCC2=O | -1.3 | -6.7
O=S1(=O)C[C@H](NCc2ccccc2F)[C@@H](S(=O)(=O)c2ccc(Cl)cc2)C1 | -1 | 0.33
Going on with the list.
SMILES | CDC25B-CDK2 inh | HIV TAR-Tat
CCCn1c(=O)c2ccc(Cl)cc2n2c(=O)[nH]nc12 | -3 | -0.31
Cc1ccccc1OCCSc1nnc(Cc2c(C)nc3c(C)cccn3c2=O)n1C | -2.2 | -1.5
CCCCCn1c(CN2CCOCC2)nc2c1c(=O)[nH]c(=O)n2C | -1.4 | 3.5
CC1(C)Cc2c(sc3nc(SCc4ccc5c(c4)OCO5)nc(N)c23)CS1 | -0.45 | -0.32
CCOC(=O)c1nnn(-c2nonc2N)c1CN1CCCCCC1 | -1.3 | /
Cn1c(=O)n(C)c2cc(Sc3ccccc3Cl)c(NS(=O)(=O)c3cnc[nH]3)cc21 | / | 2.1
COC(=O)c1sc2cccc(F)c2c1S(=O)(=O)N1CCN(c2ccc(Cl)cc2)CC1 | / | 0.2
CC1=C(c2ccc(C)c(C)c2)S(=O)(=O)N=C1N1CCC(C(=O)N2CCCC(C)C2)CC1 (stereo not drawn) | -1.4 | 2
O=C(Cn1cnc2c(nnn2Cc2ccccc2F)c1=O)c1ccc(Cl)cc1 | -0.4 | 0.83
CC(=O)OCc1cc(=O)n2oc(C)cc2n1 | / | -0.67
Cc1cc(C)cc(S(=O)(=O)Nc2cccc(-c3ccc(S(C)(=O)=O)nn3)c2)c1 | / | 0.22
Cc1cc2n(n1)CCCN2C(=O)CCC(=O)NC1CCCC1 | / | 1.6
CN(C)CCCNCC(O)Cn1c2ccccc2c2ccccc21 (stereo not drawn) | -2.1 | /
CCCOC(=O)CSc1nc(-c2ccc(C)cc2)c(C#N)c(=O)[nH]1 | -1.3 | -0.7
Cn1c(-c2ccccc2)cnc1NC(=O)NCc1ccc(F)cc1 | / | 1.4
Cc1cc(C)n(-c2nc3c(c(=O)n2CC(=O)N2CCCc4ccccc42)CCCC3)n1 | / | 3.5
COc1ccc(-c2nc(C(N)=O)c3[nH]c(=O)n(-c4ccc(F)cc4)c3n2)c(OC)c1 | / | 1.1
O=C(CSc1nc2ccccc2nc1N1CCCC1)NCC1CCCO1 (stereo not drawn) | -1.1 | 0.15
O=[N+]([O-])c1cccnc1N/N=C/c1cccnc1 | 0.43 | /
C=CCOc1ccc(/C(O)=C2/C(=O)C(=O)N(CC3CCCO3)C23C(=O)N(C)c2ccccc23)cc1C (stereo not drawn) | -2.5 | 1.5
CN(CCO)c1ncnc2nc[nH]c12 | -0.25 | /
CCOC(=O)c1csc(-c2ccc3nonc3c2)n1 | -1 | /
O=S(=O)(Cc1ccc(Cl)cc1Cl)CC(O)Cn1ccc(C(F)(F)F)n1 (stereo not drawn) | -0.68 | /
NC(=O)CSc1cn(CC(=O)N2CCOCC2)c2ccccc12 | / | 0.72
CCOC(=O)c1sc2ncnc(OCCOc3ccccc3)c2c1C | / | 1.4
More compounds follow:
SMILES | CDC25B-CDK2 inh | HIV TAR-Tat
Cc1ccc(-c2nc3nc(C)cc(Nc4ccc(F)cc4)n3n2)cc1 | 0.84 | 1.3
Cc1cccc(NC(=O)NC(=O)/C=C/c2cccs2)n1 | -3.7 | /
CC(=O)Oc1c(C)cnc2c1COC(C)OC2 (stereo not drawn) | -0.9 | /
COc1cc2c(cc1OC)CN([C@H]1CS(=O)(=O)C[C@@H]1S(=O)(=O)c1ccc(F)cc1)CC2 | -1.1 | -0.56
O=C(Cn1c(=O)oc2ccccc21)Nc1ccc(S(=O)(=O)N2CCCC2)cc1 | -1.5 | 0.88
O=C(CN1CCN(c2ccccc2)CC1)Nc1nnc(-c2ccco2)s1 | -1 | /
CCN(CC)C(=O)CSc1nc2cc(Cl)ccc2o1 | -1.3 | /
CCOc1cccc(/C=N/c2nnc(SC)s2)c1O | -0.77 | /
NC(=O)c1cc2c(s1)-c1cc(Cl)ccc1SC2 | 0.08 | /
COCCOc1cc2nc[nH]c(=O)c2cc1OCCOC | -1.8 | /
COc1ccc(SCCC(=O)NNS(=O)(=O)c2cccc(Cl)c2)cc1 | -0.5 | /
COc1cccc(/C=c2/sc3n(c2=O)C(c2cccs2)C2=C(N=3)c3ccccc3CC2)c1O (stereo not drawn) | -4.1 | /
Fc1ccccc1N1CCN(Cc2nnc(-c3ccccc3)o2)CC1 | -1.2 | 1.8
CCOc1ccc2nc(SC3CC(=O)N(c4cc(OC)ccc4OC)C3=O)sc2c1 (stereo not drawn) | 0.22 | -0.27
Cc1nnsc1C(=O)Nc1nc2ccc(F)cc2s1 | -0.93 | -0.87
CC12CC(NC(=O)N1c1ccccc1F)c1cc(Br)ccc1O2 (stereo not drawn) | -2.8 | /
Cn1c(Cn2c(=O)sc3ccccc32)nnc1SCC(=O)NC1CCCCC1 | -0.71 | /
CCCCCCCNC(=O)Cn1cnc2c1c(=O)n(C)c(=O)n2C | 0.35 | 0.85
CN1CCN(c2ccccc2NC(=O)c2cc3c(s2)-c2ccccc2OC3)CC1 | -0.7 | -0.48
CCOC(=O)CNC(=O)N1CCN(S(=O)(=O)c2ccc3c(ccn3C)c2)CC1 | / | 0.95
O=S(=O)(c1ccc(-c2cnc(C3CC3)o2)cc1)N1CCCC1 | / | 0.69
Cc1ccc(C(CNC(=O)c2oc3cc(Br)ccc3c2C)N2CCCC2)o1 (stereo not drawn) | -0.78 | -0.03
COc1ccc(NS(=O)(=O)c2ccc3c(c2)CCCC(=O)N3)c(OC)c1 | / | 1.3
Cc1ccc(C2CC(c3c(-c4ccccc4)c4cc(Cl)ccc4[nH]c3=O)=NN2S(C)(=O)=O)cc1 (stereo not drawn) | -1.8 | -0.75
Cc1cc(C)cc(NS(=O)(=O)c2cc(-c3onc(C)c3C)ccc2C)c1 | / | 2.2

Continued; the last seven above are carried over.
SMILES | CDC25B-CDK2 inh | HIV TAR-Tat
CN1CCN(c2ccccc2NC(=O)c2cc3c(s2)-c2ccccc2OC3)CC1 | -0.7 | -0.48
CCOC(=O)CNC(=O)N1CCN(S(=O)(=O)c2ccc3c(ccn3C)c2)CC1 | / | 0.95
O=S(=O)(c1ccc(-c2cnc(C3CC3)o2)cc1)N1CCCC1 | / | 0.69
Cc1ccc(C(CNC(=O)c2oc3cc(Br)ccc3c2C)N2CCCC2)o1 (stereo not drawn) | -0.78 | -0.03
COc1ccc(NS(=O)(=O)c2ccc3c(c2)CCCC(=O)N3)c(OC)c1 | / | 1.3
Cc1ccc(C2CC(c3c(-c4ccccc4)c4cc(Cl)ccc4[nH]c3=O)=NN2S(C)(=O)=O)cc1 (stereo not drawn) | -1.8 | -0.75
Cc1cc(C)cc(NS(=O)(=O)c2cc(-c3onc(C)c3C)ccc2C)c1 | / | 2.2
COc1ccc(N)c([N+](=O)[O-])c1 | -1.6 | /
CC(=O)Nc1cccc(Cl)c1 | 0.61 | /
O=c1ccc(-c2ccc(S(=O)(=O)Nc3ccc(Cl)cc3)o2)n[nH]1 | / | 2.1
CCOC(=O)C1=C(C)Nc2nnnn2C1c1ccc(OCc2ccccc2)c(OCC)c1 (stereo not drawn) | -5.1 | -0.64
O=C(Cn1cnc2c(nc3n2CCCCC3)c1=O)NCC1CCCO1 (stereo not drawn) | / | -0.08
CCCCC(=O)Nc1nn2c(CC)nnc2s1 | -0.73 | 1.3
CCS(=O)(=O)N1CCCc2ccc(NS(=O)(=O)c3ccc(C)cc3C)cc21 | / | -0.69
Cc1ncc(CO)c2cc(S(=O)(=O)c3ccc(F)cc3)c(=O)oc12 | -1 | /
Cc1cc(C)cc(OCCn2c(CN3CCOCC3)nc3ccccc32)c1 | -1 | 1.6
CCCN1C(=O)C2C(C(=O)Nc3ccc(OC)cc3)C3C=CC2(O3)C1C(=O)NC1CCCC(C)C1C (stereo not drawn) | 0.1 | 0.12
CCc1ccc(-c2cc(C)no2)cc1S(=O)(=O)NCc1ccc(N(C)C)cc1 | / | 0.66
Cc1cc(N2CCC(C)CC2)n2nc(Cc3ccc(Cl)cc3)nc2n1 | -1.7 | 2.4
COc1cc(C2C=C(C(=O)O)Nc3ncnn32)cc(Br)c1O (stereo not drawn) | / | 0.05
COc1ccc(Nc2nc3ccc(Cl)cc3n3cnnc23)c(OC)c1 | -0.83 | 1.3
COc1cc(C2c3c(oc4cc(C)c(C)cc4c3=O)C(=O)N2CCCN(C)C)ccc1O (stereo not drawn) | -0.99 | 2.2
COc1ccc(/C=c2\oc3cccc4c(OC)ccc(c2=O)c34)cc1OC | 2.7 | /
CC(c1ccccc1)N(Cc1ccco1)S(=O)(=O)c1ccc2c(c1)C(C)(C)C(=O)N2C (stereo not drawn) | / | 0.48
Cc1ncc([N+](=O)[O-])n1CCOC(=O)c1ccc(Cl)cc1Cl | -1.1 | /
CC1CCN(C(=O)Cn2cc(SCC(N)=O)c3ccccc32)CC1 | / | -0.36
CCOC(=O)N1CCC(N2CC34C=CC(O3)C(C(=O)Nc3ccc(F)cc3)C4C2=O)CC1 (stereo not drawn) | -1.6 | 0.09
Cc1cc(N2CCN(c3ccccn3)CC2)n2nc(-c3ccco3)nc2n1 | / | -6.6
CCc1ccc2nc(Nc3nc(CSc4nnc(C)s4)cc(=O)[nH]3)nc(C)c2c1 | -0.77 | 1.1
CCCS(=O)(=O)N1CCC(n2nc(-c3ccccc3)oc2=O)CC1 | -0.94 | 1.5
CCOc1ccc(-n2nnnc2CNC(=O)Nc2cccs2)cc1 | / | -1.4
Cc1nn(C)c(C)c1CNS(=O)(=O)c1ccc2c(c1)CCCC2 | / | 0.06

Single records, as listed above.
Record of CCc1ccc2nc(Nc3nc(CSc4nnc(C)s4)cc(=O)[nH]3)nc(C)c2c1 : CDC25B-CDK2 inh: -0.77; HIV TAR-Tat: 1.1
Record of O=C(Cn1cnc2c(nc3n2CCCCC3)c1=O)NCC1CCCO1 (stereo not drawn) : CDC25B-CDK2 inh: /; HIV TAR-Tat: -0.08
Record of CCS(=O)(=O)N1CCCc2ccc(NS(=O)(=O)c3ccc(C)cc3C)cc21 : CDC25B-CDK2 inh: /; HIV TAR-Tat: -0.69

(continued)
SMILES | CDC25B-CDK2 inh | HIV TAR-Tat
COc1ccccc1N1CCN(S(=O)(=O)c2ccccc2)CC1 | 0.57 | -0.32
CN(CC(=O)NC1CCCC1)S(=O)(=O)c1ccc2[nH]c3c(c2c1)CCCC3 | / | 0.71
O=C1c2ccccc2-c2onc3c(N4CCN(c5ncccn5)CC4)cc(NCc4ccco4)c1c23 | -2.1 | -2
CCN(CC)c1nc(Nc2ccc(C)cc2)c2cnn(C)c2n1 | / | 0.95
CCSc1nn2c(=O)cc(COc3ccc(CC)cc3)nc2s1 | -0.65 | -0.97
Cc1ccc(S(=O)(=O)N2CCN(c3cc(N4CCCC4)nc(C)n3)CC2)c(C)c1 | 0.5 | 1.7
Cn1c(=O)oc2cc(S(=O)(=O)Nc3ccc(-c4cc5cc(Cl)ccc5[nH]4)cc3)ccc21 | / | -5.4
Cc1cc2oc(C(=O)NCC(c3ccco3)N3CCCC3)cc(=O)c2cc1C (stereo not drawn) | -1.3 | -0.42
Cc1ccc(Nc2nc(NCc3ccco3)nc3c2cnn3C)cc1Cl | / | 0.98
CCCOc1ccc(Br)cc1C1C(C(=O)OCC)=C(C)Nc2nnnn21 (stereo not drawn) | 0.79 | 0.17
COc1ccc2c(c1)CC(NC(=O)NCCCN1CCCCC1)CO2 (stereo not drawn) | / | 1.8
Cc1nc(-c2cccnc2)nc(N2CCCN(Cc3ccc(F)cc3)CC2)c1Cl | -1.4 | /
CCc1cc2c3c([nH]c2cc1S(=O)(=O)NCc1ccco1)CCCC3=O | / | -2.1
